Compound activity (PubChem)
GIV-Gai inh: GIV-Galpha-i interaction inhibition; percent of control (FP), % (concentration not given with the values); AID 1224905; Galpha-i3/FITC-GIV peptide fluorescence polarization, 90 min; active compounds read low; scaled: aluminum fluoride 0%, vehicle 100%; 0.42% of 210,000 active;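 active = replicate mean at 85% of control or lower, very high polarization wells dropped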;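 note: wells of about 15 µL received 100 nL stock; the first replicate is given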
Target sequence (P08753 whole entry, looked up): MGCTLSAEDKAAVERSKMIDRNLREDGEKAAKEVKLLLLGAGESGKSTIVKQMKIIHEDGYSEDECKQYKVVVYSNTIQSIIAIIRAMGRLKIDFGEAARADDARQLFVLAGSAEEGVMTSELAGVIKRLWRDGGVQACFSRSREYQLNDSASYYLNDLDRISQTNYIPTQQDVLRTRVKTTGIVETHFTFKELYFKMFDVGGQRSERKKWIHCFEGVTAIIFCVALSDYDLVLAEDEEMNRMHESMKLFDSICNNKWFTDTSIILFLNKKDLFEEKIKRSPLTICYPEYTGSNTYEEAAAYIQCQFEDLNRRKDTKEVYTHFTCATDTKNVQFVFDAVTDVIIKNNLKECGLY
Sa growth 42C: blocks Staphylococcus aureus growth. 0.53% of 170,000 active. AID 720641. relative growth, % (test concentration not listed). S. aureus RN4220 growth, OD600, 20 h, 42 °C; active compounds read low;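 active = growth at 42 °C up to 50% and 20 or more points under that at 30 °C, or under 10% at both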;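 note: 300 nL library stock went into each well; scaled to the means of positive and negative controls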
HCMV NEC inh: cytomegalovirus nuclear egress complex inhibition; AID 1918969; inhibition, % (test concentration not listed); HTRF UL50-UL53 interaction, normalized percent inhibition; 0.15% of 190,000 active;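 active = both replicates at 50% or more, plus weaker picks with an unusually low signal ratio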;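 note: stock transfer was 100 nL into about 20 µL; 0% = negative control wells and 100% = wells with untagged competitor protein; inactives centre near -12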
Sa growth 42C second temp: further read-out of Sa growth 42C, marked with its call; relative growth, %; measured here: growth at 30 °C;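 optical density after 20 h as mean of two plates; 100% = untreated growth and lower means inhibition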
The depositor's hits bear a star; nt = not tested or not shown; & = joins results of further samples.

SMILES	GIV-Gai inh	Sa growth 42C	Sa growth 42C second temp	HCMV NEC inh
O=C(CO/N=C/c1cccs1)N1CCCc2ccccc21	nt	98	90	-60
O=c1sc2ccccc2n1CCCOc1ccccc1Cl	95	72	81	nt
CCOC(=O)c1oc2ccccc2c1COC(=O)c1ccccc1OCC	nt	101	98	-11
O=C(O)CCC(=O)Nc1ccc(N2CCCCC2)c(C(=O)O)c1	102	88	96	2
O=C(COC(=O)C1CC(=O)N(Cc2ccco2)C1)NC1CCCc2ccccc21 (stereo unspecified)	nt	94	103	19
CC(=O)Nc1nnc(SCc2cc(=O)c3cccc(C)c3[nH]2)s1	100	100	85	nt
O=C(Cn1cc(C(F)(F)F)ccc1=O)Nc1ccc(S(=O)(=O)N2CCCC2)cc1	nt	84	94	-8
Cc1cc(C)nc(N/C=C(\C#N)S(=O)(=O)c2ccccn2)n1	111	96	84	-24
OCCN1C2=NCCCN2c2ccccc21	100	88	94	-7
Cc1ccc(N(C(=O)Nc2c(-c3c(Cl)cccc3Cl)noc2C)S(C)=O)cc1 (stereo unspecified)	107	89	85	-34
CC(C(=O)O)N1C(=O)COc2ccccc21 (stereo unspecified)	nt	91	85	1
COC(=O)CSc1nc2sc3c(c2c(=O)n1CCc1ccccc1)CC(C)(C)OC3	106&98	nt	nt	-12

Another view of part of the listing above:
canonical_smiles: O=C(COC(=O)C1CC(=O)N(Cc2ccco2)C1)NC1CCCc2ccccc21 (stereo unspecified)
  GIV-Gai inh = nt | Sa growth 42C = 94 | Sa growth 42C second temp = 103 | HCMV NEC inh = 19

canonical_smiles: OCCN1C2=NCCCN2c2ccccc21
  GIV-Gai inh = 100 | Sa growth 42C = 88 | Sa growth 42C second temp = 94 | HCMV NEC inh = -7

canonical_smiles: Cc1ccc(N(C(=O)Nc2c(-c3c(Cl)cccc3Cl)noc2C)S(C)=O)cc1 (stereo unspecified)
  GIV-Gai inh = 107 | Sa growth 42C = 89 | Sa growth 42C second temp = 85 | HCMV NEC inh = -34

canonical_smiles: O=C(CO/N=C/c1cccs1)N1CCCc2ccccc21
  GIV-Gai inh = nt | Sa growth 42C = 98 | Sa growth 42C second temp = 90 | HCMV NEC inh = -60

(listing goes on)
SMILES	GIV-Gai inh	Sa growth 42C	Sa growth 42C second temp	HCMV NEC inh
Cc1csc(-n2[nH]c(C)c(CCC(=O)Nc3cc(Cl)ccc3C)c2=O)n1	103	nt	nt	4
COc1cc(C2CC(=O)NC(SCC(=O)NCc3ccccc3)=C2C#N)ccc1O (stereo unspecified)	101	88	76	-20
CC(C)(C)C1CCc2nc(NC(=O)Cc3ccccc3)sc2C1 (stereo unspecified)	98	84	50	-6
CCOc1cc(/C=C2/C(=O)N(c3ccccc3)N=C2C)ccc1Oc1nc(Cl)ncc1F	100	nt	nt	-5
CCOc1ccc2oc(-c3ccccc3)c(C(=O)O)c2c1	102	113	78	-25
O=C(COc1ccc(-n2cnnn2)cc1)Nc1ccccc1	nt	94	93	2
COc1cc(OC)c(NC(=O)c2ccc3c(=O)n4c(nc3c2)CCCCC4)cc1Cl	100	98	101	0
CCN(CC)c1ccc(-n2nc3cc(C)c(N)cc3n2)cc1	119	119	77	-24
NNC(=S)Nc1ccc(S(=O)(=O)N2CCOCC2)cc1	nt	70	72	-2
CC(=O)NC(=O)c1cc2cc(Cl)cc(Cl)c2oc1=Nc1cccc(C#N)c1	102	nt	nt	-12
COc1ccc(C2CC(=O)C3=C(C2)NC(C)=C(C#N)C3c2ccc(Br)cc2)cc1 (stereo unspecified)	104	nt	nt	-4
O=C(c1ccc(F)cc1)N1CC(OCc2cccc(F)c2)C1	100	nt	nt	-11
Cc1nn(S(=O)(=O)c2ccc(C(C)C)cc2)c(C)c1S(=O)(=O)N1CCCCC1	103	88	89	nt
CCOC(=O)c1c(C)[nH]c(C)c1S(=O)(=O)NCC(=O)N1CCN(c2cc(Cl)ccc2C)CC1	110	105	98	nt
CCCCN(c1nc2nc(C)c(Cl)c(C)n2n1)S(=O)(=O)c1ccc(C)cc1	100	nt	nt	-8
CCOc1ccc(CNC(=O)C2CCC(=O)N2C2CCCC2)cc1OC (stereo unspecified)	99	97	76	4
CCc1ccc(NS(=O)(=O)c2ccc3c(c2)CC(=O)N3)cc1	106	98	66	-17
Cc1ccc(Cl)cc1NC(=O)CCCn1c(=O)c2cccn2c2ccccc21	102	128	99	-17
CCNC(=O)c1ccc2c(c1)c(C)c(C)n2C	113	nt	nt	4
N#CC(=C1CCCC1)c1nc2ccccc2[nH]1	nt	102	88	-40
CCn1c(=O)cc(OCC(=O)N2CCN(c3cccc(C)c3C)CC2)c2ccccc21	103	101	98	14
CCOC(=O)c1c(C)oc(C)c1CN	105	84	87	8
CN(C)CCCn1c(-c2ccccc2)csc1=Nc1ccccc1	nt	100	93	-7
COc1ccc(N2C(=O)C3N=NN(CC(=O)NCc4ccccc4)C3C2=O)cc1OC (stereo unspecified)	97	88	95	-16
O=C(CCc1c[nH]c2ccccc12)Oc1ccc(F)cc1	nt	106	86	-31
c1cncc(CNC2CCCc3ccccc32)c1 (stereo unspecified)	94	120	106	-18
O=c1[nH]c2ccccc2nc1-c1ccc(Br)s1	98	84	83	-6
CCOC(=O)c1cc2c3c(c1)C1C=CCC1C(c1ccc(F)cc1)N3CC1CC=CC21 (stereo unspecified)	114	nt	nt	-18
Cc1c(NC(=O)C(C)(C)C)c(=O)n(-c2ccccc2)n1C	102	105	94	-9
Cc1nn2c(=O)cc(COc3cccc(NC(=O)c4cccs4)c3)nc2s1	104	96	97	3
O=C(CN1C(=O)S/C(=C\c2ccco2)C1=O)Nc1ccc(O)c(C(=O)O)c1	106	110	83	-93
NC(=O)c1cccc(CS(=O)(=O)c2ccc(Cl)cc2)c1	102	107	98	5
Cc1cc(OCC(=O)Nc2cnn(CCCC(=O)O)c2)ccc1Cl	107	93	95	27
Cc1cc(=O)[nH]c2ccccc12	nt	83	93	-16
COc1ccc(Nc2nc3ccc(Cl)cc3nc2-n2nc(C)cc2C)cc1	108	116	87	nt
Cc1cc(-c2nnc(SCC(N)=O)n2CC2CCCO2)cs1 (stereo unspecified)	112	87	108	-1
CCOc1ccc(N/C=C/C(=O)c2ccco2)cc1	117	95	92	-49
Cc1ccc(C(=O)Nc2nc(-c3nnn(-c4cccc(Cl)c4C)c3C)ns2)cc1C	104	113	100	nt
O=C1CSCC(=O)N1c1csc(C(F)(F)F)c1-c1ccccc1	102	103	88	-22
CC(C)N(C(=S)NCc1ccccc1)C(C)C	106	106	100	0
OCCSCCc1ccncc1	101	91	103	-54
CC(=O)Nc1ccc(N2C(=O)c3cc(C)nn3CC2(C)C(=O)NCc2ccccc2)cc1 (stereo unspecified)	94	nt	nt	-1
CC(C)(Oc1ccc(Cl)cc1)C(=O)N1CCCCC1	nt	90	108	-2
Cc1cc(C)n(C(=O)c2ccc(Cl)cc2)n1	nt	92	85	-18
C=CCN(CC=C)C(=O)c1ccc(N2C(=O)CCC2=O)cc1	97	76	108	-5
CN(C)CCNC(=O)c1ccc(/C=C2\SC(=S)N(C)C2=O)cc1	111	106	88	-88
Cc1ccc(S(=O)(=O)c2cc3cc(C(=O)Nc4ccc(C)cc4C)ccc3oc2=O)cc1	100	97	93	-10
COc1ccccc1NC1CC(C)N(C(=O)c2ccc(C)cc2)c2c(C)cccc21 (stereo unspecified)	99	nt	nt	0
COc1ccc(-c2nc3scc(CCNS(=O)(=O)c4ccc(C)cc4)n3n2)cc1	96	106	95	nt
COc1cccc(/C=N/NC(=O)Cc2cccs2)c1	104	94	89	-49
CCN(CC)C(=O)c1ccc(Cn2cc(Cl)cn2)o1	102	106	79	-13
Cc1nc(COC(=O)c2cc(O)c3ccccc3c2O)cs1	nt	64	49	-89
CC(C)(C)NC(=O)c1ccncc1	95	103	97	95
Cc1cc(CSc2cc(C)c(Cl)cc2Cl)no1	101	110	68	0
O=c1c2cnn(-c3ccccc3)c2ncn1Cc1cccnc1	103	105	100	2
CCc1ccccc1Nc1nn2c(=O)c3ccc(C(=O)NCc4cccs4)cc3nc2s1	102	102	70	nt
COc1ccccc1NC(=O)C1=C(C)Nc2nc(SCc3ccc(Cl)cc3)nn2C1c1ccccc1Cl (stereo unspecified)	109	96	93	-10
Cc1ccccc1CS(=O)(=O)Cc1ccc(C(=O)NC(C)c2ccccc2)o1 (stereo unspecified)	102	104	76	0
Cc1ccc(CN2CCC(CNc3ncnc4onc(-c5ccc(F)cc5)c34)CC2)cc1	104	126	87	nt
Cc1ccc(Cc2nc(-c3ccc4c(c3)[nH]c(=O)c(=O)n4C(C)C)no2)cc1	104	nt	nt	-24

Other entries
SMILES	GIV-Gai inh	Sa growth 42C	Sa growth 42C second temp	HCMV NEC inh
COc1cc(/C=C2/C(=N)N3C=CSC3=NC2=O)cc(OC)c1OCCOc1ccc(C)c(C)c1	103	86	79	nt
COc1cccc(C2/C(=C(/O)c3ccc(Cl)cc3)C(=O)C(=O)N2c2ccc(OCC(=O)O)cc2)c1 (stereo unspecified)	nt	102	88	-75
CC(C)CCNC(=O)CCCCn1c(=O)c2ccccc2n(CC(=O)Nc2ccc3c(c2)OCO3)c1=O	102	nt	nt	-28
Cn1c(=O)c2nc(Sc3nnc(NC(=O)c4ccccc4)s3)n(C)c2n(C)c1=O	97	nt	nt	-9
CN(Cc1nccn1C)C(=O)c1ccc2c(c1)S(=O)(=O)c1ccccc1C2=O	nt	88	93	-152
CCCCCCc1c(C)c2c(cc(C)c3c(C)c(C)oc32)oc1=O	113	83	98	14
O=C(CCN1C(=O)c2ccccc2Sc2ncccc21)NCCc1ccc(Cl)cc1	103	102	80	nt
COc1ccc(-c2nc3cc(C)ccc3o2)cc1	154	104	87	nt
O=C(Nc1ccc2ccccc2c1)C1CC(=O)N(C2CCCCC2)C1 (stereo unspecified)	107	95	119	17
Cc1ccccc1S(=O)c1ccccc1C(=O)O (stereo unspecified)	106	88	96	6
COC(=O)c1c(NC(C)=O)csc1C	94	95	86	-20
O=C(Nc1ccccc1-c1nc2ccccc2s1)c1cc([N+](=O)[O-])ccc1Cl	106	nt	nt	-14
COc1ccc(C(=O)Nc2ccc3nc(C)sc3c2)cc1	100	nt	nt	-7
Cc1cc(-c2onc(C)c2C(=O)Sc2c(Cl)cccc2Cl)no1	103	95	67	2
CCOC(=O)c1c(S(=O)(=O)N2CCCC(C(=O)Nc3cc(C)ccc3OC)C2)c(C)n(C)c1C (stereo unspecified)	103	102	90	nt
Cc1cc(C)n(C(C)CC(=O)Nc2ccc(C)c(N(C)C)c2)n1 (stereo unspecified)	99	94	93	nt
Cc1cccc(NC(=O)N2CCN(C)c3ncccc32)c1C	97&102	90	87	-17&-34
Cc1cc(Cl)c(S(=O)(=O)NCc2ccco2)cc1OCC(=O)NC1CCCCC1	111	90	93	2
Cc1ccc(C(=O)NCC(c2ccc3c(c2)OCO3)N2CCOCC2)cc1 (stereo unspecified)	93	88	87	nt
O=C(CN1C(=O)CC(c2ccco2)Sc2ccccc21)Nc1ccc(C(F)(F)F)cc1 (stereo unspecified)	102	107	88	-18
O=C(CSc1ccccn1)Nc1ccccc1C(F)(F)F	nt	102	97	0
O=C(NCCc1ccccc1)c1ccc2c(c1)N(Cc1ccc(Cl)cc1)C(=O)CS2	104	133	103	15
CCC1Oc2ccccc2N(Cc2ccccc2C)C1=O (stereo unspecified)	108	92	94	5
CC(NC(=O)/C=C1\Sc2ccccc2NC1=O)c1ccccc1 (stereo unspecified)	109	81	82	nt

Laid out differently: entries from further up.
Values run as follows: GIV-Gai inh	Sa growth 42C	Sa growth 42C second temp	HCMV NEC inh
Cc1csc(-n2[nH]c(C)c(CCC(=O)Nc3cc(Cl)ccc3C)c2=O)n1
→ 103	nt	nt	4
COc1cc(C2CC(=O)NC(SCC(=O)NCc3ccccc3)=C2C#N)ccc1O (stereo unspecified)
→ 101	88	76	-20
CC(C)(C)C1CCc2nc(NC(=O)Cc3ccccc3)sc2C1 (stereo unspecified)
→ 98	84	50	-6
CCOc1cc(/C=C2/C(=O)N(c3ccccc3)N=C2C)ccc1Oc1nc(Cl)ncc1F
→ 100	nt	nt	-5
CCOc1ccc2oc(-c3ccccc3)c(C(=O)O)c2c1
→ 102	113	78	-25

The list continues.
SMILES	GIV-Gai inh	Sa growth 42C	Sa growth 42C second temp	HCMV NEC inh
O=C(CN(C(=O)CSc1nc2ccccc2o1)c1cccc(F)c1)NC1CCCCC1	104	74	92	6
CCOC(=O)c1cnc2c(F)cc(F)cc2c1N1CCOCC1	101	118	104	nt
C=CCc1ccccc1OCC(O)Cn1c2ccccc2c2ccccc21 (stereo unspecified)	117	104	83	nt
COc1ccc(-c2cnc3/c(=C4\CCCN4C)c(=O)n(-c4ccccc4)n23)cc1	nt	68	96	-16
Cc1[nH]c(C)c(C(=O)O)c1CNC1CCCCC1C (stereo unspecified)	99	107	86	-11
COc1cccc(NC(=O)c2sc3nc(C)c(C(=O)Nc4ccc(Cl)cc4)c(-c4ccc(Br)cc4)c3c2N)c1	106	106	101	9
O=[N+]([O-])c1ccc(-c2nc(-c3ccccc3)c3cc([N+](=O)[O-])ccc3n2)cc1	105	nt	nt	-12
NC(=O)Cn1cc(C(=O)c2ccco2)c2ccccc21	102	95	86	2
CCc1ccc(NC(=O)N2CC=C(c3c[nH]c4ccccc34)CC2)cc1	167&109	111	88	-26&4
Cc1ccc(-n2ncc(C(=O)NCc3cccs3)c2C2CCN(C(=O)OC(C)(C)C)CC2)cc1C	103	118	78	nt
Cc1cc(N2CCCCC2)nc2ccc(NC(=O)CCC(=O)NCc3ccco3)cc12	104	87	91	4
